# Bioassay records (PubChem BioAssay)
# LANA-H2A inh = blockers of LANA interaction with H2A/H2B – biochemical, FP readout, HTS, primary screen; Protein LANA1 (Human herpesvirus 8 type P (isolate GK18)), Q9QR71; cell-free LANA-H2A/H2B peptide, fluorescence polarization; inhibition, % (test concentration not listed); hit rate 0.6% among 320,000; in the data active = inhibition mostly above about 10%, no sharp cut-off; inactive = mostly below about 6.7%;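 note: stock transfer was 7.5 nL into about 10 µL; 0% = median of vehicle wells and 100% = median of positive control wells; one replicate is shown; the record names a cut of 25% in any replicate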
# Target sequence (Q9QR71 whole entry, looked up): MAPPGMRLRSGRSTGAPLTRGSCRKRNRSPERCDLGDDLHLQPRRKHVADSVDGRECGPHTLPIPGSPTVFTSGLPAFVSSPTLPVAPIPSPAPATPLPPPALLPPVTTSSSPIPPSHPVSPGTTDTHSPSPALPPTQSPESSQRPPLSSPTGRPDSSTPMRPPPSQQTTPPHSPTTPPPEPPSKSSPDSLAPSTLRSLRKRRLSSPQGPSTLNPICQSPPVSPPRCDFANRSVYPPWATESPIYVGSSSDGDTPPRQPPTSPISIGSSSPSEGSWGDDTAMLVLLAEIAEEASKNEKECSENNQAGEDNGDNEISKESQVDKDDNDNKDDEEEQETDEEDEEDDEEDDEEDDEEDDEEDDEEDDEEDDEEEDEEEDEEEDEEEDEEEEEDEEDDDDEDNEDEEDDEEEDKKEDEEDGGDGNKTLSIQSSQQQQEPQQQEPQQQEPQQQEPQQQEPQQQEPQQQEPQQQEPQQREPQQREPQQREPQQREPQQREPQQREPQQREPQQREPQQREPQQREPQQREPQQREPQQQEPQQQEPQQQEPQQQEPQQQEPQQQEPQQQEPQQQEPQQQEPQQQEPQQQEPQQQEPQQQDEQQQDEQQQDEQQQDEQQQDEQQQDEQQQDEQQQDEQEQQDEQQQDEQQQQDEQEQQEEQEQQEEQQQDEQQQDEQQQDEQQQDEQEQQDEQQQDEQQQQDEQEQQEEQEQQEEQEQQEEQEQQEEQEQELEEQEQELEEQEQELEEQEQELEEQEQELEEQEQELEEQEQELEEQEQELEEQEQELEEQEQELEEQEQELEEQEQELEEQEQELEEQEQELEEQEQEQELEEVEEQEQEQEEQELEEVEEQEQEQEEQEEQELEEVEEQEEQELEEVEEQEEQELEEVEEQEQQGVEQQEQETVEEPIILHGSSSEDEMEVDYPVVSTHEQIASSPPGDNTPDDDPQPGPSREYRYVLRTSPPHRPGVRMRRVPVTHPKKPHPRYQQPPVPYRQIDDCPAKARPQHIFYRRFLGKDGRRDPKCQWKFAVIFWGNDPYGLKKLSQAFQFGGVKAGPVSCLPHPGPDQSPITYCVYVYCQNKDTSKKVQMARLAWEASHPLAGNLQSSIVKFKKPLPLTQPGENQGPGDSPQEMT
# Beta cell apopt = inhibitors of cytokine-induced beta cell apoptosis, primary screen, luminescence; INS-1E cytokine-induced death, ATP luminescence, 48 h; percent of positive-control rescue, neutral wells zero; protection from apoptosis, % (concentration not given with the values); hit rate 0.8% among 300,000; AID 435005, 2010;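 active = all replicates at 75% or more, or half of them and the mean; inconclusive = half reach 75% but not the mean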;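 note: 0% = cytokine-treated negative control wells and 100% = positive control rescue; higher means more ATP so stronger rescue from cytokine killing; wells of about 40 µL received 100 nL stock; the first replicate is given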
# MLL AF4-AF9 inh = inhibitors of AF4 peptide binding to AF9, primary screen, biochemical, AlphaScreen, biotin-AF4 peptide, FLAG-AF9, single point. Protein AF-9 (Homo sapiens), P42568. inhibition, % at 10 µM. hit rate 0.47% among 350,000;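 active = every replicate reaching a set inhibition limit, whatever the replicate mean, cut at about 25% in these data; inconclusive = mean inhibition reaches that limit but some replicates miss it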;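 note: 0% = plate neutral control median and 100% = total signal loss; the record names both 10 and 1 µM as test concentration; the first replicate is given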
# T cruzi inh = inhibitors of intracellular T. cruzi growth, primary screen, luminescence, NIH3T3 host cells. T. cruzi beta-gal in NIH3T3, 90 h. inhibition, % (test concentration not listed). hit rate 1.4% among 300,000. AID 1885, 2009;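 active = mean inhibition across valid replicates above about 55%, limit read from the data; inconclusive = mean below that limit but half or more replicates reach it; inactive = mean below it, under half of replicates reach it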;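 note: signal also drops with host cell toxicity which is not excluded here; 0% = plate median of DMSO wells and 100% = zero luminescence signal; higher percent means less beta-gal luminescence so fewer parasites; stock transfer was 50 nL into about 50 µL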
# Vif A3G = inhibitors of Vif binding to APOBEC3G peptide, primary screen, biochemical, TR-FRET, GST-Vif 1-94, biotin-A3G peptide, dose response retest (AID 1117319); one-dose inhibition, %; IC50 in µM for titrated hits; TR-FRET GST-Vif / biotin-A3G peptide binding; higher % means a stronger effect; test concentration not given here; strong numbers were not always called active; Virion infectivity factor (Human immunodeficiency virus type 1 group M subtype B (isolate …; hit rate 0.57% among 260,000;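 active = above the screen mean plus three standard deviations and confirmed in dose response; inconclusive = results disagree or hit not tested in dose response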;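 note: Vif residues 1-94 fused to GST binding biotinylated APOBEC3G peptide 110-148; 0% = full assay without inhibitor and 100% = GST in place of GST-Vif; retest series ran down from 100 µM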
# Calb FLC = C. albicans growth inhibition with fluconazole, primary screen, CaCi-2 strain, Alamar Blue fluorescence; C. albicans CaCi-2 (fluconazole-resistant clinical isolate) + fluconazole, 48 h; growth inhibition, % (no concentration beside the values); hit rate 0.57% among 300,000; AID 1979, 2009;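 active = most replicates above 75%; inconclusive = exactly half above 75%; inactive = most below 75%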;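 note: all wells also contain fluconazole at 8 µg/ml as a sub-toxic cotreatment; 0% = median of DMSO wells and 100% = median of geldanamycin control wells; wells of about 8 µL received 7.5 nL stock; the first replicate is given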
# RanGTP-Impb inh = inhibitors of RanGTP-importin-beta interaction, primary screen, biochemical, FRET, CFP-Ran, YFP-importin-beta, homogeneous. Ran GTPase (GTP-bound) - importin-beta complex. cell-free CFP-Ran/YFP-importin-beta FRET ratio. inhibition, % (concentration not given with the values). hit rate 1.1% among 300,000. AID 2216, 2009;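 active = most replicates above 15%; inconclusive = exactly half above 15%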;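 note: 0% = DMSO wells and 100% = Ran loaded with GDP instead of GTP; wells of about 40 µL received 100 nL stock; the first replicate is given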
# Bfl-1 A1 inh = caspase 3/7 activation in MEF A1-2A-BIM cells, primary screen, A1 inhibitor project, cell-based, luminescence, HTS; Caspase-Glo 3/7 luminescence, 3 h; percent of clofoctol response, vehicle zero; caspase activation, % (test concentration not listed); hit rate 0.066% among 330,000; AID 2462, 2010;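 active = over half of replicate activation scores above 10%, or exactly half above 10 with the replicate mean above 10; inconclusive = replicate mean below 10 yet half the replicates above 10; inactive = over half of replicates below 10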;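 note: wells of about 30 µL received 50 nL stock; many hits fall short of the cut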
# * marks the source's active call; other numbers are inactive results; ? = inconclusive; . = not tested or not shown.
[1] Cc1cc(=O)oc(C)c1C(=O)Nc1ccc(Cl)cn1
[2] COc1ccc(C(CNC(=O)c2cccc(S(=O)(=O)Nc3ccccc3OC)c2)N2CCCC2)cc1 (stereo not drawn)
[3] CCOc1ccccc1N1C(=O)c2cccnc2C1=O
[4] COc1ccc(CC(=O)Nc2nn(C)c3nc4c(C)cccc4cc23)cc1
[5] Cc1ccc(C2CC(c3cccs3)=NN2C(=O)CSC2=NCCS2)cc1 (stereo not drawn)
[6] Cc1cc(=O)n(CCO)c(O)c1C#N
[7] COc1cc2cc(CN(CCO)C(=O)c3cccs3)c(=O)[nH]c2cc1OC
[8] COC(=O)C1OC2(OC1C(=O)OC)c1ccccc1-c1ccccc12 (stereo not drawn)
Assay by compound,1,2,3,4,5,6,7,8
LANA-H2A inh,-2.9,-1.0,2.5,0.8,-1.8,4.3,-6.9,-6.6
Beta cell apopt,0,-8,0,2,-9,2,2,-15
MLL AF4-AF9 inh,.,-3.6,-4.6,-3.4,4.2,.,.,.
T cruzi inh,-17,-4,0,-2,21,-7,-6,-4
Vif A3G,19%,6%,31%,0%,-5%,29%,7%,-6%
Calb FLC,2,-11,3,25,-5,-1,?,3
RanGTP-Impb inh,9.7,5.0,-1.0,5.7,8.9,-8.0,-0.7,-0.5
Bfl-1 A1 inh,-0.1,1.1,0.1,0.9,0.5,-1.0,-1.0,0.2

[9] Cc1c(C(=O)Nc2ccc3c4c(cccc24)CC3)cccc1[N+](=O)[O-]
[10] CC(=O)c1ccc(N2CCN(C(=O)C3CCN(S(=O)(=O)c4ccc5c(c4)CC(C)N5C(=O)C4CC4)CC3)CC2)cc1 (stereo not drawn)
[11] O=C(O)CCNS(=O)(=O)c1ccc(Oc2ccccc2Cl)cc1
[12] Cc1cc2nc3c(=O)[nH]c(=S)[nH]c3nc2cc1NC(=O)C(F)(F)F
[13] COC(=O)c1ccc(NC(=O)Cn2nnc(-c3cccs3)n2)cc1
[14] O=C(O)c1cccc(NC(=O)c2ccc(N3C(=O)c4ccc(C(=O)Nc5cccc(C(=O)O)c5)cc4C3=O)cc2)c1
[15] Cc1c(C)n(C)c2ccc(C(=O)N3CCN(c4ccccc4)CC3)cc12
[16] CCn1ncc(CNC(=O)C2(C)CC2(Cl)Cl)c1C (stereo not drawn)
Assay by compound,9,10,11,12,13,14,15,16
LANA-H2A inh,-2.4,5.3,-5.3,5.3,-3.7,-2.2,-11,0.1
Beta cell apopt,2,13,-6,0,-8,-10,-9,-1
MLL AF4-AF9 inh,-1.9,-10,.,-7.8,-2.9,?,-0.8,1.6
T cruzi inh,7,-9,-13,14,1,-8,12,-3
Vif A3G,.,.,1%,.,0%,.,19%,5%
Calb FLC,-11,-7,-12,-4,-3,0,-5,2
RanGTP-Impb inh,2.3,-1.0,10,-56,5.4,1.6,12,5.8
Bfl-1 A1 inh,0.7,-0.1,0.2,-0.5,1.5,-0.2,0.0,0.3

# Only T cruzi inh and Vif A3G, for some of the entries so far:
cpd	mol	T cruzi inh	Vif A3G
14	O=C(O)c1cccc(NC(=O)c2ccc(N3C(=O)c4ccc(C(=O)Nc5cccc(C(=O)O)c5)cc4C3=O)cc2)c1	-8	.
15	Cc1c(C)n(C)c2ccc(C(=O)N3CCN(c4ccccc4)CC3)cc12	12	19%

# Remaining list, next part
[17] Nc1nonc1C(=O)NCCNC(=O)c1cccc(Cl)c1
[18] CC(C)(O)[C@H](O)COc1c2ccoc2cc2oc(=O)ccc12
[19] O=C(c1ccc(S(=O)(=O)N2CCCCC2)cc1)c1nnc(-c2ccc(Cl)cc2)o1
[20] Cc1c(-n2c(=O)n(Cc3ccccc3)c(=O)c3[nH]cnc32)cccc1S(C)=O (stereo not drawn)
[21] Cc1ccccc1NS(=O)(=O)c1ccc(C(=O)N2CCCC(C(F)(F)F)C2)cc1 (stereo not drawn)
[22] O=C1CN=C(Nc2ccc(Cl)cc2)N1c1ccccc1
[23] c1ccc(-c2cc(-c3ccccc3)n3ncnc3n2)cc1
[24] CC(C)=Cc1c(O)nc2ccccn2c1=O
Assay by compound,17,18,19,20,21,22,23,24
LANA-H2A inh,-3.3,-3.5,.,1.0,0.6,4.8,5.9,-4.1
Beta cell apopt,2,2,.,-3,.,-1,4,-4
MLL AF4-AF9 inh,0.3,0.1,.,-2.2,-2.1,.,-2.3,-1.1
T cruzi inh,-18,10,-7,-8,0,-2,19,-47
Vif A3G,.,-9%,13%,7%,5%,33%,-1%,1%
Calb FLC,-4,-8,0,-2,19,-3,67,-12
RanGTP-Impb inh,-1.4,-1.2,2.5,-1.3,2.5,-2.2,?,2.2
Bfl-1 A1 inh,-0.1,0.0,.,-0.4,-0.7,0.4,0.4,0.6

[25] CC(C)OC(=O)CN1CCN(c2ccc(Cl)cc2)CC1
[26] CCOC(=O)N1CCN(C(=O)CSCc2ccc(Cl)cc2)CC1
[27] Cc1ccc(OCC(=O)OCC(=O)N2c3ccccc3CC2C)cc1C (stereo not drawn)
[28] OCCCCNCc1ccc(OCc2ccccc2)cc1
[29] S=C(Nc1ccccc1Cl)NC1CC2CCCC(C1)N2C1CC1 (stereo not drawn)
[30] O=C(O)c1csc(-c2ccc(Cl)cc2)n1
[31] CC(Oc1ccc(Cl)cc1Cl)C(=O)NNC(=O)C(=O)N1CCCC1 (stereo not drawn)
[32] Cc1nc(SC(C)C(=O)c2c(N)n(C)c(=O)n(C)c2=O)c2c(C)c(C)sc2n1 (stereo not drawn)
Assay by compound,25,26,27,28,29,30,31,32
LANA-H2A inh,-2.3,-10,6.6,1.6,-3.9,-2.0,-0.8,0.9
Beta cell apopt,-3,2,0,-10,-10,-2,-7,-2
MLL AF4-AF9 inh,-8.0,.,-1.2,.,2.9,-1.9,-1.5,1.2
T cruzi inh,2,.,.,3,-17,-13,-2,1
Vif A3G,6%,3%,-14%,-12%,15%,-3%,.,-1%
Calb FLC,0,?,.,6,0,-9,-8,3
RanGTP-Impb inh,1.6,-4.0,.,-1.1,2.3,-0.4,-0.3,0.9
Bfl-1 A1 inh,0.3,0.6,-1.2,2.3,0.6,-0.9,0.3,0.9

[33] CCC(OC(=O)c1nsc(Cl)c1Cl)C(=O)NCc1cccs1 (stereo not drawn)
[34] Cc1ccccc1NC(=O)CN1C(=O)NC2(CCc3ccccc32)C1=O (stereo not drawn)
[35] O=C(NCC(=O)N1CCN(c2ccccc2O)CC1)c1ccccc1
[36] CC(C)(C)NC(=S)NNC(=O)c1ccncc1
[37] CCOc1ccc(NS(=O)(=O)c2ccc(C(=O)NCc3ccncc3)cc2)cc1
[38] O=C(c1ccc(Cl)cc1)N1CCC(O)(CSc2ccc(Cl)cc2)CC1
[39] Cc1ccc(NC(=O)CCSc2nnnn2-c2ccc3c(c2)OCO3)cc1C
[40] CCOC(=O)c1ccccc1N=Cc1c(O)c2ccccc2oc1=O
Assay by compound,33,34,35,36,37,38,39,40
LANA-H2A inh,2.4,-2.0,4.9,6.0,0.2,6.3,-3.4,-2.0
Beta cell apopt,2,-1,0,6,-3,1,-2,-3
MLL AF4-AF9 inh,.,-3.6,-0.8,-1.8,-7.0,.,.,-3.0
T cruzi inh,3,.,-1,-12,2,6,16,-15
Vif A3G,-4%,-5%,.,-5%,-4%,-1%,6%,.
Calb FLC,-7,.,-7,12,11,0,-1,9
RanGTP-Impb inh,-1.6,.,1.9,0.7,-1.1,-0.2,4.5,1.4
Bfl-1 A1 inh,0.0,0.6,1.5,0.3,-0.2,-0.4,0.9,0.6

# 3 entries from above, with tabs.
entry	SMILES	LANA-H2A inh	Beta cell apopt	MLL AF4-AF9 inh	T cruzi inh	Vif A3G	Calb FLC	RanGTP-Impb inh	Bfl-1 A1 inh
40	CCOC(=O)c1ccccc1N=Cc1c(O)c2ccccc2oc1=O	-2.0	-3	-3.0	-15	.	9	1.4	0.6
38	O=C(c1ccc(Cl)cc1)N1CCC(O)(CSc2ccc(Cl)cc2)CC1	6.3	1	.	6	-1%	0	-0.2	-0.4
36	CC(C)(C)NC(=S)NNC(=O)c1ccncc1	6.0	6	-1.8	-12	-5%	12	0.7	0.3

# Continuation:
[41] O=C(OCC(=O)N1CCc2ccccc2C1)c1ccc(OC(F)F)cc1
[42] COc1cc(NC(=O)C2CCCCC2)c(OC)cc1NC(=O)CCC(=O)NCc1ccco1
[43] COc1ccc(CNC(=S)Nc2ccc3nc(N4CCOCC4)cc(C)c3c2)cc1
[44] CSc1c(C#N)c(N)nc2sc(C(=O)c3ccc(Cl)c(Cl)c3)c(N)c12
[45] COc1ccc(NC(=O)c2nc(S(=O)(=O)Cc3cccc(C)c3)ncc2Cl)c(OC)c1
[46] N=C(N)SCc1ccccc1Cl
[47] O=C(Cc1ccc(Nc2nc3ccc(Br)cc3[nH]2)cc1)NCCc1cccs1
[48] Cc1ccc(N2CC(C(=O)NCC3CCCO3)CC2=O)cc1Cl (stereo not drawn)
Assay by compound,41,42,43,44,45,46,47,48
LANA-H2A inh,-0.5,-0.7,5.5,-1.8,-4.7,-1.2,-8.2,-1.1
Beta cell apopt,-4,3,-5,7,-2,.,3,-8
MLL AF4-AF9 inh,-2.8,.,-1.6,.,-2.8,.,8.1,.
T cruzi inh,.,-9,30,-10,-12,-29,34,-8
Vif A3G,.,-3%,2%,-1%,.,-1%,3%,26%
Calb FLC,.,-23,0,-2,2,-6,-23,7
RanGTP-Impb inh,.,2.2,-1.4,-61,?,1.5,1.5,0.6
Bfl-1 A1 inh,0.3,-0.3,-0.7,0.5,-1.1,-0.6,0.3,0.1

[49] O=C(c1cc(C2CC2)on1)N1CCCC(N2CCN(c3cccc(C(F)(F)F)c3)CC2)C1 (stereo not drawn)
[50] CCCNC(=O)Cn1cnc2sc(C(=O)N3CCN(CCC)CC3)c(C)c2c1=O
[51] COc1ccc(CC(=O)OCC(=O)Nc2cc(Cl)ccc2C)cc1
[52] CC(=O)Nc1ccc2c(CSc3nncs3)cc(=O)oc2c1
Assay by compound,49,50,51,52
LANA-H2A inh,0.8,.,-4.3,-4.5
Beta cell apopt,6,-2,-4,-3
MLL AF4-AF9 inh,4.9,.,0.0,-8.3
T cruzi inh,33,0,.,-12
Vif A3G,.,0%,-2%,27%
Calb FLC,2,-2,.,-1
RanGTP-Impb inh,3.7,0.8,.,0.8
Bfl-1 A1 inh,-0.4,-0.2,-0.5,-0.1
